PMP22 txn: modulators of PMP22 gene transcription in S16 Schwann cells; S16 Pmp22-F2sN Schwann cells (luciferase reporters placed in the Pmp22 gene), FLuc/NLuc coincidence luminescence, 24 h; Potency, µM (titrated, usually from 57.5 µM), inactives show at the top dose activity change, negative = inhibition, usual class: inhibitors; actives 2% (n = 43,000); active = clear falling dose curves in both reporters; inconclusive = both reporters move, but less clearly or upward; inactive = either reporter flat; the % is the NLuc reporter signal; also: % is scaled to controls: 0 for no effect and ±100 for the full control effect; some results filed as inactive show a strong effect at the top dose
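S16 Schwann cells carrying FLuc/NLuc coincidence reporter in the Pmp22 3' UTR treated with compound 24 h at 37C; FLuc then NLuc luminescence read sequentially by dual-luciferase reagents.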
HTT prom inh: HTT promoter inhibition; HEK293 HTT promoter firefly luciferase reporter (activity 0% = vehicle and -100% = no light), 24 h; Potency, µM (series often up to 57.5 µM), for inactives: top-dose activity change, negative = inhibition, usual class: inhibitors; actives 0.93% (n = 48,000); active = well fitted inhibition curve with a large enough effect; inconclusive = small, poorly fitted or top-dose-only effect; inactive = no such curve, though single readings can be large or run the other way; also: nearly all actives have a fitted effect of over 50% in size
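Firefly luciferase readout (Dual-Glo, 10 min RT) after 24 h, 37 °C compound exposure (final up to 57.5 uM) of HEK293 reporter cells cultured 24 h beforehand; PTC124 at 50 uM final as control inhibitor; activity scaled vehicle 0%, zero RLU -100%.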
The depositor's hits bear a star; u = inconclusive; x = no result given; [ ] = another dose, or the depositor's remark. Potency is read from the fitted curve at half-maximal effect.

Every second line gives: HTT prom inh, PMP22 txn
> Cn1c2ccccc2c2cnn(CC(=O)Nc3ccccc3F)c(=O)c21
  -8%, -16%
> COc1ccccc1CNC(=O)CCC1N=C2c3ccccc3N=C(SCc3ccccc3Cl)N2C1=O (stereo not drawn)
  u, u
> N#C/C(=C\c1ccccc1)C(=O)Nc1sc2c(c1C(N)=O)CCC2
  -5%, 39%
> CCOc1ccc(CCNC(=O)c2ccc(C)c(-n3c(C)nc4cccnc43)c2)cc1OCC
  -15%, -20%
> CCCOc1ccc(CNC(=O)C2CCN(C(=O)c3sccc3-n3cccc3)CC2)cc1
  u, -10%
> COc1ccc(C)cc1NC(=O)CN1C(=O)COc2ccc(S(=O)(=O)N3CCCCCC3)cc21
  -9%, -14%
> C=CCc1c(C)nc2nc(SCC(=O)Nc3ccc(C)c(C)c3)nn2c1C
  -11%, u
> COc1ccc(-c2ccc(-c3noc(-c4cc(OC)cc(OC)c4)n3)c(OC)n2)cc1
  4%, 16%
> Cc1ccc(N(C)C(CNS(=O)(=O)c2ccccc2)c2ccccc2)cc1 (stereo not drawn)
  u, u
> CCOC(=O)c1c(C)[nH]c(C)c1S(=O)(=O)N(C)CC(=O)Nc1ccc(C)cc1C
  -11%, -22%
> COc1cc2[nH]c(=O)n(CCCCCC(=O)N3CCN(c4cccc(C(F)(F)F)c4)CC3)c(=O)c2cc1OC
  u, u
> O=C(Nc1cccc(Br)c1)c1cccc(S(=O)(=O)N2CCCCCC2)c1
  u, x
> CC(C)Cn1c(-c2ccccc2Cl)nc2ccccc21
  15%, 5%
> CCOC(=O)c1cc2c(=O)n3ccccc3nc2n(Cc2ccco2)c1=NC(=O)c1cccc(F)c1
  u, u
> COc1ccc(CCNC(=O)CCCn2c(=O)c3ccccc3n(Cc3c(C)cc(C)cc3C)c2=O)cc1OC
  2%, -3%
> CCn1c(=O)cc(OCC(=O)N2CCN(c3ccc(C)cc3)C(C)C2)c2ccccc21 (stereo not drawn)
  u, u
> CCOc1ccc(CNC(=O)c2cc3c(=O)oc4ccc(C)cc4c3s2)cc1
  -11%, -7%
> Cc1cccc(C)c1OCCSc1nc2ccccc2n1CC(=O)O
  7%, -66%
> CCOC(=O)c1sc2cccc(F)c2c1S(=O)(=O)Nc1ccccc1F
  -13%, -53%
> COc1cc2ncc3c(-c4ccccc4)nn(-c4ccc(C)cc4)c3c2cc1OC
  -12%, u
> CCc1ccccc1NC(=O)Cn1nnc(C(=O)NCc2ccco2)c1N
  -18%, -30%
> O=C(Nc1ccccc1F)c1nc(SCc2ccc(F)cc2)ncc1Cl
  -1%, -5%
> CCCNc1nc2c(c(=O)n(C)c(=O)n2C)n1CC(O)COc1ccccc1 (stereo not drawn)
  -5%, u
> C#Cc1cccc(Nc2ncnc3cc(OCCOC)c(OCCOC)cc23)c1
  u, x
> CC1CCN(c2nc3c(S(=O)(=O)c4ccccc4)nnn3c3ccsc23)CC1
  -10%, -15%
> Cc1ccc(C2N3CC4(C)CN2CC(c2ccccc2)(C3)C4=O)cc1 (stereo not drawn)
  -19%, 7%
> Cc1ccccc1NC(=O)Cn1c(SCC(=O)Nc2ccc(F)cc2)nc2ccccc21
  -20%, u
> CCc1ccc(Nc2nnc(-c3cc4cc(OC)ccc4oc3=O)s2)cc1
  -9%, 11%
> Cc1ccccc1C(=O)Nc1nnc(S(=O)(=O)N2CCc3ccccc32)s1
  3%, 4%
> CN(C)C1(CNC(=O)COc2cccc(Cl)c2)CCCCC1
  -15%, -11%
> CCN1CCN(c2nc3c(S(=O)(=O)c4ccc(Br)cc4)nnn3c3ccsc23)CC1
  -3%, u
> COC(=O)c1sccc1S(=O)(=O)N(CC(=O)Nc1cc(C)ccc1C)c1ccc(C)c(C)c1
  -24%, u
> Cc1csc2nc(-c3ccc(NS(=O)(=O)c4cccc(F)c4)cc3)cn12
  -16%, -10%
> Cc1ccc(-n2ncc3c(N4CCN(C)CC4)ncnc32)cc1
  u, 2%
> CCCCN1CC(c2nc3ccccc3n2CCCCOc2cc(C)cc(C)c2)CC1=O (stereo not drawn)
  u, u
> O=C(NC1CC(=O)N(c2ccc(F)cc2)C1)c1ccc(S(=O)(=O)N2CCCCC2)cc1 (stereo not drawn)
  u, -18%
> Cc1ccn2c(Nc3c(C)cccc3C)c(-c3ccsc3)nc2c1
  u, u
> COc1ccc(OC)c(NC(=O)CN(C)S(=O)(=O)c2ccc(C(=O)N3CCOCC3)s2)c1
  u, u
> Brc1cccc(-c2nnn3c2nc(NCc2ccc4c(c2)OCO4)c2ccccc23)c1
  21%, u
> CCOc1ccc(-c2nn(-c3ccc(F)cc3)c3c2cnc2ccc(F)cc23)cc1
  -5%, -7%

Looked up above.
Result for CN(C)C1(CNC(=O)COc2cccc(Cl)c2)CCCCC1 under PMP22 txn: -11%
Result for CC1CCN(c2nc3c(S(=O)(=O)c4ccccc4)nnn3c3ccsc23)CC1 under PMP22 txn: -15%
Result for COC(=O)c1sccc1S(=O)(=O)N(CC(=O)Nc1cc(C)ccc1C)c1ccc(C)c(C)c1 under HTT prom inh: -24%
Result for Cc1ccc(-n2ncc3c(N4CCN(C)CC4)ncnc32)cc1 under PMP22 txn: 2%
Result for Cc1ccc(C2N3CC4(C)CN2CC(c2ccccc2)(C3)C4=O)cc1 (stereo not drawn) under PMP22 txn: 7%
Result for O=C(Nc1ccccc1F)c1nc(SCc2ccc(F)cc2)ncc1Cl under PMP22 txn: -5%

Next compounds.
Every second line gives: HTT prom inh, PMP22 txn
> Cn1c(=O)sc2cc(NS(=O)(=O)c3ccc(C(C)(C)C)cc3)ccc21
  12%, -22%
> CCOc1ccc(-c2nc(SCC(=O)Nc3ccc(C)c(C)c3)n3[nH]c(=O)cc3n2)cc1
  -10%, -15%
> Cc1ccc(NC(=O)Cn2c(=O)n(CCC(=O)NCc3ccc4c(c3)OCO4)c(=O)c3sccc32)c(C)c1
  5%, 2%
> Cc1onc(-c2ccccc2)c1-c1ccc(S(N)(=O)=O)cc1
  -7%, x
> CCOC(=O)c1c(C)[nH]c(C)c1S(=O)(=O)NCC(=O)N1CCN(c2ccccc2F)CC1
  -8%, 3%
> COc1cccc(N2CCN(C(=O)c3cccn3-c3nnc(N4CCCC4)s3)CC2)c1
  -17%, -4%
> CCOC(=O)C1CCN(C(=O)C2CCN(C3=NS(=O)(=O)C(c4ccc(C)c(C)c4)=C3C)CC2)CC1
  -27%, -8%
> COc1ccc(CNC(=O)Cn2nnc(-c3ccccc3F)n2)cc1
  -5%, 4%
> Cc1cc(NS(=O)(=O)c2ccc(NC(=O)COc3ccccc3Br)cc2)no1
  -17%, 12%
> CN(C)c1oc(-c2ccc(COc3ccccc3)o2)nc1C#N
  -33%, u
> COc1ccccc1C(=O)Nc1nc2nc(C)cc(=O)n2[nH]1
  -1%, -9%
> CCOc1ccccc1C(=O)Nc1c(NC)c2ccccc2oc1=O
  -6%, 3%
> Cc1ccc(-n2nc(CO)c(C(=O)NC(C)CCCc3ccccc3)n2)cc1 (stereo not drawn)
  u, -4%
> COCCNC(=O)CCC(=O)N1Cc2cccc(OC)c2Oc2ncccc21
  -13%, -8%
> CCN(CC)CCCNC(=O)Cn1ncc2c3ccccc3n(Cc3ccccc3)c2c1=O
  -2%, 4%
> Cc1cccc(NC(=O)c2oc3ccc(S(=O)(=O)N4CCC5(CC4)OCCO5)cc3c2C)c1C
  u, -35%
> COc1ccc(NC(=O)c2ccc(NC(=O)N3CCSc4ncccc43)cc2)cc1
  -22%, 9%
> Cc1ccc(C)c(N2CCN(C(=O)c3ccc(Nc4nc5ccccc5n5nnnc45)cc3)CC2)c1
  16%, -37%
> Cc1coc2c(C)c3oc(=O)c(CC(=O)NCCc4ccc(Cl)cc4)c(C)c3cc12
  -8%, -2%
> C#CCn1c(C2CC(=O)N(c3ccc(OC)cc3)C2)nc2ccccc21 (stereo not drawn)
  -10%, -12%
> COc1ccc(Cl)cc1NC(=O)CSc1nnc(C)n2c1cc1occc12
  -9%, u
> CCOc1ccc(-c2cn3c(n2)sc2cc(C(=O)NCCCN4CCCCC4)ccc23)cc1
  u, 14µM*
> COc1ccccc1CNC(=O)c1cccc(N2CCCS2(=O)=O)c1
  u, u
> O=C(Nc1ccc(S(=O)(=O)Nc2ncccn2)cc1)c1ccccc1Cl
  3%, 18%
> COC(=O)c1c(NC(=O)c2cc(=O)c3cc(C)cc(C)c3o2)sc2c1CCC2
  10%, -1%
> Cc1ccc(-c2nnc(Nc3ccc(Br)cc3)c3ccccc23)cc1S(=O)(=O)N1CCN(C)CC1
  -33%, u
> CCOc1ccc(NC(=O)CCn2cccn2)cc1
  30%[activator], -5%
> CCCSC1=NC2(CCN(C(=O)NC3CCCCC3)CC2)N=C1c1ccc(Cl)cc1
  u, 3%
> Cc1cc(NC(=O)N2CC=C(c3c[nH]c4ccccc34)CC2)ccc1Br
  u, u
> CC(C)OCCCNC(=O)CN1C(=O)COc2ccc(S(=O)(=O)N3CCOCC3)cc21
  -8%, -5%
> Cc1ccc(-n2ncc(C(=O)N3CCN(c4ncccn4)CC3)c2C2CCN(C(=O)OC(C)(C)C)CC2)cc1
  2%, -13%
> CC(NC(=O)Nc1ccccc1C(F)(F)F)c1c(-n2cccc2)sc2c1CCCC2 (stereo not drawn)
  -29%, -14%
> COc1ccc(-c2onc(C)c2C)cc1S(=O)(=O)NC1CCCCC1
  u, -29%
> CCC(Sc1ccc2nnc(CCNS(=O)(=O)c3ccc(OC)cc3)n2n1)C(=O)OC (stereo not drawn)
  -2%, -1%
> Cc1ccc(NS(=O)(=O)c2c(C)[nH]c(=O)[nH]c2=O)c(C)c1
  -5%, -1%
> CC(=O)N1CCc2cc(S(=O)(=O)CCC(=O)N3CCN(c4cccc(C)c4C)CC3)ccc21
  -7%, u
> Cc1ccc(C)c(NC(=O)Cc2coc3cc(C)cc(C)c23)c1
  -16%, 5%
> Cc1ccccc1/C=C(\C#N)c1nc(-c2ccc(Cl)cc2)cs1
  28%, -10%
> CC(=O)c1ccc(N2CCN(C(=O)c3ccc(Cn4c(=O)[nH]c5ccccc5c4=O)cc3)CC2)cc1
  u, u
> CCn1c(=O)c2sccc2n2c(CCC(=O)Nc3ccc(OC)c(Cl)c3)nnc12
  -1%, 6%

Of the compounds above, these contain a cyano group:
Every second line gives: HTT prom inh, PMP22 txn
> N#C/C(=C\c1ccccc1)C(=O)Nc1sc2c(c1C(N)=O)CCC2
  -5%, 39%
> CN(C)c1oc(-c2ccc(COc3ccccc3)o2)nc1C#N
  -33%, u
> Cc1ccccc1/C=C(\C#N)c1nc(-c2ccc(Cl)cc2)cs1
  28%, -10%

The results go on.
Every second line gives: HTT prom inh, PMP22 txn
> O=C(C1CCN(c2nc3ccccc3[nH]2)CC1)N1CCN(c2cccc(Cl)c2)CC1
  u, u
> CCN1CCc2c(sc(NC(=O)c3ccc(S(=O)(=O)N(C)C4CCCCC4)cc3)c2C(N)=O)C1
  -14%, u
> CCCOc1ccc(-c2cccc(NS(=O)(=O)c3ccccc3)c2)nn1
  u, u
> O=C1CC(c2ccccc2)Cc2[nH]c(=O)c(C(=O)Nc3ccc(F)cc3)cc21 (stereo not drawn)
  -8%, -6%
> CCOc1ccc(C(=O)NCCc2sc(-c3cccc(F)c3)nc2C)cc1OCC
  -33%, u
> CC(CCc1ccccc1)NC(=O)Cn1ncc2c3ccccc3n(Cc3ccccc3F)c2c1=O (stereo not drawn)
  15%, u
> CCOc1ccc(CNC(=O)CN2C(=O)C3CCCCN3c3ccc(C(=O)N4CCCC4)cc32)cc1 (stereo not drawn)
  1%, 2%
> Cc1ccc(C)c(NC(=O)CSc2nc3c([nH]c4ccccc43)c(=O)n2-c2ccc(F)cc2)c1
  -8%, u
> CC(C)NC(=O)Cn1ccc2cc(S(=O)(=O)N3CCCCCC3)ccc21
  -21%, -6%
> CCOc1ccccc1NC(=O)N1CCN(Cc2nc3ccc(C)cc3o2)CC1
  -18%, u
> COc1ccc2c(c1)c1c(c(=O)n(-c3ccc(OC)c(OC)c3)c(=O)n1Cc1ccc(C)cc1)n2C
  -8%, 8%
> COCc1cc(C)nc2sc3c(c12)NC(c1ccc(O)c(OC)c1)N(c1ccccc1)C3=O (stereo not drawn)
  -1%, u
> CCCNC(=O)CN1C(=O)COc2ccc(S(=O)(=O)N3CCCCCC3)cc21
  -3%, -1%
> COc1ccc(CCNC(=O)c2cccc(-n3cnc4cccnc43)c2C)cc1OC
  u, -33%
> CCCCOc1ccc(C(=O)NCc2nnnn2-c2ccc(C)c(C)c2)cc1
  -6%, -1%
> O=C(NC1CCCCC1)c1ccc(CSc2nc3ccncc3n2Cc2ccc(F)cc2)cc1
  u, u
> CCc1ccccc1NC(=O)C(NS(=O)(=O)c1ccc2c(c1)CCC(=O)N2)c1ccccc1 (stereo not drawn)
  -10%, 6%
> Cc1cccc(C)c1NC(=O)CC12CCCN1CCC2
  -5%, x
> Cc1cccc(-n2c3nc(=O)n(C)c(=O)c-3cc3ccc(Cl)cc32)c1C
  -8%, 0%
> Cc1cc(C)c2c(n1)nn1c(C)c(CCC(=O)NCc3ccccc3Cl)c(C)nc21
  17%, -14%
> O=C(COc1ccccc1F)Nc1ccccc1OCc1cc(=O)n2ccccc2n1
  5%, -16%
> O=c1c2c3c(sc2n(Cc2ccc(F)cc2Cl)c(=O)n1-c1ccc(Cl)cc1)CCC3
  18%, -2%

Screens as filed in PubChem.
